KSHV LANA nucl = LANA-nucleosome interaction inhibition | FITC-LANA1-23 / chicken nucleosome fluorescence polarization; stronger effect = lower value | z-score (concentration not given with the values) | 0.3% of 51,000 active | AID 720717;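 active = both repeat wells score below -2 in polarization z-score versus plate sample wells, excluding overly bright wells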;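 also: 100 nL library stock added to about 30 µL; numbers are from one replicate; some results filed as inactive read as strong as hits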
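Assay system: purified chicken nucleosomes with FITC-labelled LANA N-terminal peptide (1-23) / Probe or stimulus: 50 nM FITC-LANA1-23 probe / Compound dosing: pin-transferred compound, 100 nL / Times: compound with peptide–nucleosome mix 10–45 min at room temperature / Technique: fluorescence polarization, 480 nm excitation, 535 nm parallel and perpendicular emission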
Ab BasE inh = BasE siderophore biosynthesis inhibition. purified BasE, fluorescence polarization binding displacement. inhibition, % (concentration not given with the values). 0.1% of 84,000 active;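 active = both replicates above 25% with normal brightness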;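 also: 0% = negative plate control signal and 100% = positive plate control signal; stock transfer was 100 nL into about 30 µL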
Active calls of the source: *; nt = not tested or not shown; & = joins results of further samples. This is a subset. The share of hits here may be higher or lower than overall.

compound | Ab BasE inh | KSHV LANA nucl
CCn1cc(-c2ccccc2)c(C(=O)O)c1C | -0.4 | 0.17
CCc1ccc2nc(SCC(=O)N3CC(=O)Nc4ccccc43)c(C#N)cc2c1 | -5.8 | 2
NC(=S)N1CCCC1 | 0.7 | nt
Cc1cccc(Oc2ccc(NC(=O)C3CCC(C)CC3)cc2)c1 (stereo not given) | 1.0 | nt
COc1ccc(C(=O)COc2ccccc2C(N)=O)cc1 | nt | -0.42
CCN(CC)C(=O)Nc1c(C)cc(C)cc1C | -0.6 | 0.43
C#CCN1C(=O)C(O)(CC(=O)c2ccccc2)c2ccccc21 (stereo not given) | 0.8 | -0.49
N=C(N)N=Nc1c(O)[nH]c2ccccc12 | 0.3 | 0.13
FC(F)(F)c1cc(-c2cccs2)nc2c1cnn2Cc1cccnc1 | 2.5 | nt
Cc1nn(-c2ccccc2)nc1C(=O)Oc1cncc(Cl)c1 | -0.2 | -0.21
Cc1nn(-c2ccccc2)c(C)c1C(O)c1nnc(-c2ccccc2)o1 (stereo not given) | -0.7 | nt
O=C(Cn1nc(C(F)F)cc1C1CC1)NCCC1=CCCCC1 | 2.4 | 0.4

Quoted from the entries so far for reference:
compound | Ab BasE inh | KSHV LANA nucl
CCn1cc(-c2ccccc2)c(C(=O)O)c1C | -0.4 | 0.17
CCc1ccc2nc(SCC(=O)N3CC(=O)Nc4ccccc43)c(C#N)cc2c1 | -5.8 | 2
NC(=S)N1CCCC1 | 0.7 | nt
Cc1cccc(Oc2ccc(NC(=O)C3CCC(C)CC3)cc2)c1 (stereo not given) | 1.0 | nt
COc1ccc(C(=O)COc2ccccc2C(N)=O)cc1 | nt | -0.42
CCN(CC)C(=O)Nc1c(C)cc(C)cc1C | -0.6 | 0.43

Remaining list, next part.
compound | Ab BasE inh | KSHV LANA nucl
Cc1ccnc(NC(=O)CCCOc2ccc(Cl)cc2Cl)c1 | 2.8 | 0.36
O=C1CCN(S(=O)(=O)c2ccc(Br)cc2)CCN1 | -0.1 | nt
CCCOc1cccc2ccccc12 | 1.7 | -0.25
O=C(Nc1ccc2c(c1)nc1n2CCCCC1)c1ccccc1NS(=O)(=O)c1cccs1 | 0.3 | nt
O=C(Nc1ccc2c(c1)oc1ccccc12)C1CCCO1 (stereo not given) | 0.0 | -0.43
Cc1c(C(=O)N2CCOCC2)oc2ccc3c(c12)C(=O)CC(C)(c1ccc(Cl)cc1)O3 (stereo not given) | 2.0 | 0.66
CCCc1cc(C(=O)O)n[nH]1 | 0.6 | -0.96
O=C(c1ccc(Cl)cc1)N1CCc2sccc2C1c1ccc(Cl)cc1 (stereo not given) | -5.1 | nt
O=c1cnn(-c2ccccc2)c(-c2ccccc2)c1 | 2.2 | nt
Cc1ccc(C(=O)OCC(=O)N2c3ccccc3CC2C)cc1 (stereo not given) | 1.7 | nt
O=C1CC(NCCc2ccccc2)C(=O)N1c1ccccc1 (stereo not given) | 2.3 | -0.94
NC1=NC(=Nc2ccc(Cl)cc2)c2ccccc21 | 1.6&1.9 | -1.1

Next section.
compound | Ab BasE inh | KSHV LANA nucl
Cc1ccc(N2C(=O)N(CCN3C(=O)c4ccccc4C3=O)C(=O)C2C)cc1 (stereo not given) | 3.5 | nt
CCOC(=O)Nc1cc(C(C)(C)C)on1 | -0.9 | 0.84
COc1ccccc1-c1noc(-c2ccccc2C(=O)NCc2ccco2)n1 | 0.5 | -0.19
COc1cccc(C(C(=O)NC2CCCCC2)N(C(=O)c2ccccn2)c2cccnc2)c1 (stereo not given) | 1.0 | -0.34
CCC(NC(=O)Cc1ccccc1)C(=O)O (stereo not given) | 1.2 | -0.33
O=C(Nc1ccc(Cl)cc1)C1CCCC1 | -1.0 | nt
CCOc1ccc(/C=N/n2cnc3ccccc3c2=O)cc1CN1CC2CC(C1)c1cccc(=O)n1C2 (stereo not given) | 1.0 | -0.94
CCn1c2ccc(OC)cc2c2nc3ccccc3nc21 | 22 | -1.3
Cc1cccc(N=C2SCC(=O)N2c2cccc(C)c2)c1 | 3.1 | nt
O=c1c2sc3ccccc3c2n(Cc2ccccc2F)c(=O)n1Cc1ccco1 | -0.5 | -0.77
O=C1CC(C(=O)c2ccccc2)N=C(Nc2ccc(Cl)cc2Cl)N1 (stereo not given) | -1.4 | 0.71
Cc1cc(C)c2c(n1)sc1c(N3CCCCC3)ncnc12 | nt | 1

New compounds follow.
compound | Ab BasE inh | KSHV LANA nucl
Cc1nc2ccccc2nc1OCC(=O)N(C1CCCCC1)C1CCCCC1 | -0.3 | nt
Cc1nn(-c2ccccc2)c2c1N(CC(=O)N1CCCCC1)C(=O)CS2 | 0.2 | 1.3
CCOc1ccc2nc3sc(C(=O)Nc4nonc4C)c(N)c3cc2c1 | -1.9 | 1.2
CCNc1cc(N)[n+](CC)c2n[nH]c(N)c12 | 0.6 | nt
CCOC(=O)c1cnc(SCc2ccccc2)nc1N | -3.8 | 1
O=C(NCC1CCCO1)c1cc2ccccc2oc1=O (stereo not given) | 1.1 | 0.17
CN(C)c1ccc2nc3c(=O)n(CCc4ccccc4)c(=O)[nH]c3nc2c1 | 12 | nt
S=C(Nc1ccccc1)Nc1ccc2c(c1)oc1ccccc12 | 3.4 | nt
CCN1CCC(=NNc2ccc(Cl)c(C(=O)O)c2)CC1 | -1.5 | nt
CC(C)CNC(=O)C1(c2cccs2)CCOCC1 | 0.1 | 0.6
COc1ccc(N=c2scc(C)n2C(=O)c2ccccc2Cl)cc1 | 2.1 | nt
C=CCn1c(NCc2ccc(Cl)cc2)nc2ccccc21 | 2.4 | -0.92

(list continues)
compound | Ab BasE inh | KSHV LANA nucl
CC1(C)CC(=O)C(C=NCc2ccco2)=C(O)C1 | 0.3 | nt
O=C1C(c2cc(Cl)cc(Cl)c2)=C(O)c2ccccc21 | 6.8 | nt
Cc1ccccc1N(C)C(=O)c1cn(C)c(=O)c2ccccc12 | 4.0 | -0.46
Cc1ccccc1CN(C)C(=O)C1CC(=O)N(Cc2ccccc2)C1 (stereo not given) | -3.5 | nt
Nc1ccccc1N=C(c1ccccc1)c1c[nH]n(-c2ccccc2)c1=O | 0.1 | nt
CC(C)OC(=O)C(C#N)c1nc2ccccc2nc1N1CCN(c2ccccc2)CC1 (stereo not given) | -1.0 | -1.5
CC1(C)CSC(=NCCc2ccccc2)N1C(=O)/C=C/c1ccco1 | 0.2 | nt
Cc1cccc(-n2nc3c(c2NC(=O)Nc2cccc(Cl)c2)CSC3)c1 | 1.1 | -0.84
c1ccc2c(c1)[nH]c1nc(SCCN3CCOCC3)nnc12 | -0.1 | -0.36
Cc1nn(Cc2ccccc2Cl)c(Cl)c1/C=C/C(=O)OCC#N | 0.9 | nt
COc1ccc(C2/C(=C(\O)c3ccc(C)cc3)C(=O)C(=O)N2CCC(=O)O)cc1 (stereo not given) | 2.0 | -0.71
CC(C)c1ccc(-c2noc(C3CCCN(C(=O)Cc4cccs4)C3)n2)cc1 (stereo not given) | -0.8 | 0.16

Remaining list, next part
compound | Ab BasE inh | KSHV LANA nucl
CS(=O)(=O)N1CCN(CC(=O)NC2CCCCC2)CC1 | -0.2 | 0.38
CSc1ncc(Cl)c(C(=O)Nc2cccnc2)n1 | 1.9 | 0.79
COc1ccc(CC(=O)N2CCCC2)cc1 | 2.0 | -0.3
CCOC(=O)c1oc2ccccc2c1CSc1nnc(-c2ccc(C)cc2)n1N | -1.6 | nt
COC(=O)NCCOc1cc(C)ccc1C | -0.8 | -0.78
CC(C)=NOCC(=O)Nc1ccccc1C | 1.9 | 0.27
COc1ccc(-n2c(C)cc(-c3csc(/N=C/N(C)C)n3)c2C)cc1 | 1.8 | nt
COc1cc(-c2noc(-c3nnn(-c4cccc(Cl)c4C)c3C)n2)cc(OC)c1OC | 1.1 | nt
CN(C)c1ccc(C(C(=O)NCc2ccccc2)N(Cc2ccco2)C(=O)c2snc(C(N)=O)c2N)cc1 (stereo not given) | -1.0 | 2.9
c1ccc(CN2CCC(NN3CCOCC3)CC2)cc1 | 0.6 | 0.18
O=C1CSc2ccc(C(=O)NCCCn3ccnc3)cc2N1 | -0.7 | nt
Cc1cc(-n2c(C)cc(CNC3CC(C)(C)NC(C)(C)C3)c2C)no1 | 1.9 | nt

Following part.
compound | Ab BasE inh | KSHV LANA nucl
Cc1cc(C)c2nc(C(F)(F)F)nc(NCc3ccc4c(c3)OCO4)c2c1 | -1.9 | 2.9
CCOC(=O)c1oc2nc(-c3ccccc3)cc(-c3ccco3)c2c1N | -7.6 | 1.8
CCCCN(CC)S(=O)(=O)c1ccc2c(c1)CCN2C(C)=O | 0.1 | 0.04
Cc1c(NC2=CC(=O)CCC2)c(=O)n(-c2ccccc2)n1C | 3.5 | 0.61
CCCCn1cnc2c(c1=O)c1nc3ccccc3nc1n2CCc1ccc(OC)cc1 | 0.3 | -1.5
O=C(NCCCn1ccnc1)C1CCN(S(=O)(=O)c2ccc(F)cc2)CC1 | 9.9 | -0.27
CCN(CC)C(=O)CSc1nc2nc(C)cc(C)c2c(=O)[nH]1 | -0.4 | nt
CC(OC(=O)C1CCCN1S(=O)(=O)c1ccc(Cl)cc1)C(=O)Nc1ccc(C(N)=O)cc1 (stereo not given) | 0.1 | nt
Cc1[nH]nc(CSSCc2n[nH]c(C)c2C(=O)NN)c1C(=O)NN | -1.0 | 1
CCSc1nnc(-c2ccccc2)n1Cc1ccc2c(c1)OCO2 | -1.9 | nt
Cc1oc(S(=O)(=O)N2CCCC2)cc1C(=O)NCCN1CCNC1=O | 0.4 | nt
CCOC(=O)c1c(O)c(O)c(C(=O)OCC)n1-c1ccc(OC)cc1 | -0.7 | nt

Going on with the list.
compound | Ab BasE inh | KSHV LANA nucl
O=S(=O)(c1ccc(Cl)cc1)c1cnn(S(=O)(=O)c2ccccc2)c1-c1ccc(Cl)cc1 | 1.3 | nt
Cc1nnc(SCCNS(=O)(=O)c2ccccc2)s1 | 0.4 | 0.24
COc1ccc(N2CCN(C=C3C(=O)N(C)C(=O)N(C)C3=O)CC2)cc1 | 0.8 | nt
Cc1ccc(C)c(N2CCN(CCCNC(=O)c3cn4c5c(ccc(Cl)c5c3=O)OC(C)C4)CC2)c1 (stereo not given) | -3.4 | 0.16
Cc1n[nH]c(C)c1-c1nc2ccccc2[nH]1 | -1.0 | nt
O=S(=O)(c1cccs1)N1CCN(c2cccc(C(F)(F)F)c2)CC1 | 2.1 | nt
O=C(Nc1nn2cnnc2s1)C1CCCC1 | 0.2 | nt
CCc1ccc(OCC(O)CN)cc1 (stereo not given) | -5.0 | 1.4
COC(=O)c1sc(N)c(C(=O)OC)c1CN1CCOCC1 | 0.5 | nt
COc1ccc(NC(=O)CCc2nc3ccc(C)cc3[nH]2)c(OC)c1 | 0.7 | 0.2
CCCC(=O)Nc1cccn(Cc2cccc(OC)c2)c1=O | 5.5 | 0.45
O=C(CSc1nc(-c2ccccc2)cc(=O)[nH]1)NCC1CCCO1 (stereo not given) | -0.5 | 0.17

Later entries
compound | Ab BasE inh | KSHV LANA nucl
COc1ccc(C(=O)COC(=O)c2ccc(N)cc2)cc1 | -0.2 | 0.099
O=S(=O)(NCCCc1ccccc1)c1cccc2nsnc12 | 7.5 | -0.47
Cn1cc(CCC(=O)NCCCN2CCC(N3CCCCC3)CC2)c2ccccc21 | 2.1 | 0.16
CCNc1nc(-c2ccc(C)cc2)cs1 | 1.6 | 0.31
CCc1ccc(NC(=O)N(CCC(C)C)C(C)c2ccco2)cc1 (stereo not given) | -2.0 | 2.6
COc1ccc(S(=O)(=O)NCC(c2cccnc2)N2CCN(C)CC2)cc1OC (stereo not given) | -0.1 | 0.24
Cc1ccccc1C(=O)Nc1cccc(N(C)C)c1 | -1.7 | 0.7
Cc1nc(N2CCN(C(=O)c3ccco3)CC2)c2c3c(sc2n1)CC(C(C)(C)C)CC3 (stereo not given) | 2.8 | -0.25
O=S(=O)(CCN1C=CC(C(F)(F)F)=NCC1)c1ccc(F)cc1 | -0.9 | nt
S=C(NCCc1ccncc1)NC1CCCCC1 | 2.8 | 0.88
COC1C(OC)N(S(C)(=O)=O)CCN1S(C)(=O)=O (stereo not given) | 0.2 | 0.2
CCCCCCCCNC(C)C(O)c1ccc(SC(C)C)cc1 (stereo not given) | -0.4&-0.4 | -0.58&0.15&0.35

Further records follow:
compound | Ab BasE inh | KSHV LANA nucl
CS(=O)(=O)Nc1ccc(C(=O)N2CCCCC2)cc1 | 2.9 | -0.94
COC(=O)c1c(NC(=O)CSc2nnc(-c3cccnc3)n2C)sc2c1CCC2 | 0.2 | -0.11
O=C(COc1ccccc1)Nc1ccc(I)cc1 | 2.5 | nt
NS(=O)(=O)c1ccc(CCN2CC3=C(C2=O)C(c2ccccc2)NC(=O)N3)cc1 (stereo not given) | 0.3 | 0.49
Cn1nc(C(C)(C)C)cc1C(=O)NN1CCOCC1 | 3.4 | nt
COc1ccc(-c2nnc(NC(=O)c3ccc(S(=O)(=O)N4CCCCC4)cc3)o2)cc1 | 1.6 | -0.35
CCOC(=O)c1c(C)[nH]c(C(=O)N/N=C\c2ccccc2)c1C | -0.8 | -0.82
CCCCc1nn2c(=O)cc(O)nc2s1 | 0.2 | nt
COc1ccc(COc2ncnc3sccc23)cc1F | -5.1 | nt
CNc1ncc(C(=O)C(C)(C)C)s1 | nt | -0.018
Cc1csc(=O)n1CCC(=O)OCC(=O)c1ccc2ccccc2c1 | 0.8 | nt
Cc1ccc(Nc2cn[nH]c(=S)n2)cc1 | 1.7 | -1.6

(more compounds)
compound | Ab BasE inh | KSHV LANA nucl
CCCCc1cc2c(c(NC(C)=O)n1)c(=O)oc1ccccc12 | 1.1 | -0.084
CCN1CCN(c2cc(C)c3cc(NC(=O)/C=C/c4ccc(OC)cc4)ccc3n2)CC1 | -1.1 | -0.03
CC(N)c1ccncc1 (stereo not given) | 0.5 | 0.23
CCN(CC)C(=O)Nc1ccc(NC(=O)N(CC)CC)cc1 | -1.0 | nt
